Yeast UUG start: yeast start codon fidelity modulation; S. cerevisiae UUG-firefly luciferase reporter, luminescence/redox ratio; activity score, % at 18.7 µM; 350,000 compounds, 0.13% hits;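 active = replicate mean at a twofold rise or more, about +100% in these data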;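 note: firefly luciferase made from a UUG start codon reports start codon fidelity; reporter light over untreated wells divided by growth signal over untreated wells; some hits fall short of that in this replicate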
Env fusion inh: inhibitors of HIV Env-mediated cell fusion. HeLa-JRFL Env/CEM21 cell fusion, luciferase. 360,000 compounds, 1.1% hits. AID 651610. inhibition, % at 12.3 µM;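 active = mean replicate inhibition score of at least 50 and every replicate individually at or above 50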;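 note: 0% = plate neutral controls and 100% = maraviroc near 300 nM; one replicate is shown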
Active calls of the source: *; [ ] = remark or other dose. These rows are one share of the data, so the mix of outcomes need not match the whole.

Yeast UUG start | Env fusion inh | Molecule
-4 | -6[16.7 µM] | C[C@H](CO)N1C[C@H](C)[C@H](CN(C)C(=O)Nc2ccccc2)Oc2ccc(NC(=O)Cc3ccccc3)cc2CC1=O
-19 | -24[16.7 µM] | C[C@@H]1CN([C@@H](C)CO)C(=O)Cc2cc(NS(=O)(=O)c3cn(C)cn3)ccc2O[C@H]1CN(C)Cc1ccc(C(=O)O)cc1
14 | -18[16.7 µM] | CCCNC(=O)N(C)C[C@H]1Oc2cc(-c3ccc(C)cc3)ccc2S(=O)(=O)N([C@@H](C)CO)C[C@H]1C
15 | -15[16.7 µM] | C[C@@H]1CN([C@H](C)CO)C(=O)c2cc(C#Cc3ccccn3)cnc2O[C@H]1CN(C)C(=O)c1ccccn1
18 | 3[16.7 µM] | CNC(=O)C[C@@H]1CC[C@H]2[C@H](COc3ccc(NC(=O)Nc4ccc(F)c(F)c4)cc3C(=O)N2C)O1
6 | -23[16.7 µM] | Cc1noc(C)c1S(=O)(=O)N(C)C[C@H]1OCCCC[C@H](C)Oc2ccc(NC(=O)C3CCCCC3)cc2C(=O)N([C@@H](C)CO)C[C@H]1C
-2 | -32[16.7 µM] | Cc1cc(C(=O)Nc2cccc3c2O[C@H](CN(C)Cc2ccc(C(F)(F)F)cc2)[C@H](C)CN([C@H](C)CO)C3=O)n(C)n1
-4 | 10[16.7 µM] | CN(C)Cc1cn(CC[C@H]2CC[C@@H](NS(=O)(=O)c3ccccc3)[C@H](CO)O2)nn1
-3 | -4[16.7 µM] | CC(=O)N(C)C[C@@H]1Oc2ncc(-c3ccc(C)cc3)cc2C(=O)N([C@@H](C)CO)C[C@@H]1C
-26 | -21[16.7 µM] | CCNC(=O)C[C@@H]1CC[C@H]2[C@H](COc3ccc(NC(=O)Cc4ccccc4)cc3C(=O)N2C)O1
0 | -8[16.7 µM] | CNC(=O)C[C@H]1CC[C@H]2[C@H](COc3ccc(NC(=O)C4CCCCC4)cc3C(=O)N2C)O1
-4 | -19[16.7 µM] | C[C@H](CO)N1C[C@H](C)[C@H](CN(C)S(C)(=O)=O)Oc2ccc(NS(=O)(=O)c3ccccc3)cc2CC1=O
13 | -3[16.7 µM] | CCC(=O)N(C)C[C@@H]1Oc2cc(C#CC3CC3)ccc2S(=O)(=O)N([C@H](C)CO)C[C@@H]1C
11 | -11[16.7 µM] | C[C@H](CO)N1C[C@H](C)[C@H](CN(C)C(=O)c2ccccc2F)Oc2ncc(-c3cncnc3)cc2C1=O
-25 | -14[16.7 µM] | Cc1noc(C)c1NC(=O)N(C)C[C@H]1OCCCC[C@@H](C)Oc2ccc(NS(=O)(=O)c3cn(C)cn3)cc2C(=O)N([C@H](C)CO)C[C@@H]1C
5 | -40[16.7 µM] | C[C@H]1CCCCO[C@@H](CN(C)C(=O)C2CCCCC2)[C@@H](C)CN([C@@H](C)CO)C(=O)c2cc(NC(=O)Cc3ccccc3)ccc2O1
19 | 13[16.7 µM] | C[C@H](CO)N1C[C@H](C)[C@H](CN(C)Cc2ccc(C(F)(F)F)cc2)OCCCC[C@H](C)Oc2ccc(NC(=O)c3ccccc3)cc2C1=O
-14 | 0[16.7 µM] | C[C@@H]1CN([C@@H](C)CO)C(=O)Cc2cc(NC(=O)CCC(F)(F)F)ccc2O[C@@H]1CN(C)S(C)(=O)=O
-1 | 17[16.7 µM] | CC(C)NC(=O)Nc1ccc2c(c1)CC(=O)N([C@@H](C)CO)C[C@H](C)[C@H](CN(C)C(=O)Nc1cccc3ccccc13)O2
-9 | 5[16.7 µM] | N#C[C@H]1[C@H](c2ccccc2)[C@H](CO)N1C(=O)c1cccnc1

Four of these compounds in another layout:
Sequence of screens – Yeast UUG start	Env fusion inh
> CNC(=O)C[C@H]1CC[C@H]2[C@H](COc3ccc(NC(=O)C4CCCCC4)cc3C(=O)N2C)O1
 : 0	-8[16.7 µM]
> C[C@H](CO)N1C[C@H](C)[C@H](CN(C)S(C)(=O)=O)Oc2ccc(NS(=O)(=O)c3ccccc3)cc2CC1=O
 : -4	-19[16.7 µM]
> CCC(=O)N(C)C[C@@H]1Oc2cc(C#CC3CC3)ccc2S(=O)(=O)N([C@H](C)CO)C[C@@H]1C
 : 13	-3[16.7 µM]
> C[C@H](CO)N1C[C@H](C)[C@H](CN(C)C(=O)c2ccccc2F)Oc2ncc(-c3cncnc3)cc2C1=O
 : 11	-11[16.7 µM]

Next compounds follow.
Yeast UUG start | Env fusion inh | Molecule
3 | -5[16.7 µM] | C[C@@H]1CCCCO[C@@H](CN(C)C(=O)c2ccccc2)[C@H](C)CN([C@@H](C)CO)C(=O)c2cc(NC(=O)NC3CCCCC3)ccc2O1
-18 | -29[16.7 µM] | C[C@H]1CCCCO[C@@H](CN(C)C(=O)Nc2ccccc2)[C@@H](C)CN([C@@H](C)CO)C(=O)c2cc(NC(=O)NC3CCCCC3)ccc2O1
4 | 9[16.7 µM] | C[C@@H]1CN([C@@H](C)CO)C(=O)Cc2cc(NC(=O)Nc3ccccc3)ccc2O[C@H]1CN(C)C(=O)Nc1ccc2c(c1)OCO2
-6 | 15[16.7 µM] | O=C(Cc1ccccn1)NCC[C@H]1CC[C@@H](NS(=O)(=O)c2ccc(Cl)cc2)[C@H](CO)O1
15 | -15[16.7 µM] | C[C@@H]1CCCCO[C@@H](CN(C)C(=O)c2ccccc2)[C@H](C)CN([C@H](C)CO)C(=O)c2cc(NC(=O)C3CCCCC3)ccc2O1
16 | -7[16.7 µM] | COc1ccc(NC(=O)Nc2ccc3c(c2)[C@H]2C[C@H](CC(=O)NCc4ccc5c(c4)OCO5)O[C@@H](CO)[C@H]2O3)cc1
-7 | 14[16.7 µM] | O=C(C[C@H]1C=C[C@H](NC(=O)C2CCOCC2)[C@@H](CO)O1)NCC1CCCCC1
6 | -8[16.7 µM] | C[C@H]1CN([C@@H](C)CO)C(=O)c2cc(NC(=O)Cc3ccccc3)ccc2O[C@@H]1CN(C)CC1CCCCC1
-2 | 5[16.7 µM] | COCC#Cc1ccc2c(c1)O[C@H](CN(C)Cc1cccnc1)[C@H](C)CN([C@@H](C)CO)S2(=O)=O
-9 | -18[16.7 µM] | CO[C@@H]1CN(C)C(=O)c2cc(NC(C)=O)ccc2OC[C@H](C)N(C(=O)CC2CC2)C[C@@H]1C
-6 | -5[16.7 µM] | C[C@@H]1CN([C@H](C)CO)C(=O)c2cccc(NC(=O)c3cnccn3)c2O[C@@H]1CN(C)CC1CCCCC1
-5 | 7[16.7 µM] | COCC(=O)N1[C@@H](C#N)[C@H](c2ccc(-c3cccc(F)c3)cc2)[C@@H]1CO
-18 | -6[16.7 µM] | CCC(=O)Nc1ccc2c(c1)OC[C@@H](C)N(C(=O)CN(C)C)C[C@@H](C)[C@H](OC)CN(C)C2=O
0 | 23[16.7 µM] | C[C@H]1CN([C@@H](C)CO)C(=O)Cc2cc(NC(=O)Nc3ccc(C(F)(F)F)cc3)ccc2O[C@H]1CN(C)Cc1ccc(C(=O)O)cc1
-2 | 10[16.7 µM] | CN(C)CC(=O)N[C@@H]1CC[C@H](CC(=O)NCc2ccccc2F)O[C@H]1CO
-1 | -23[16.7 µM] | C[C@H](O)C#Cc1ccc2c(c1)O[C@H](CN(C)C(=O)Cc1ccccn1)[C@H](C)CN([C@H](C)CO)S2(=O)=O
-3 | -13[16.7 µM] | C[C@@H]1CN([C@@H](C)CO)C(=O)c2cc(C#Cc3ccncc3)cnc2O[C@H]1CN(C)CC1CCCC1
-14 | 9[16.7 µM] | C[C@H]1CN([C@@H](C)CO)C(=O)Cc2cc(NS(=O)(=O)c3cccs3)ccc2O[C@@H]1CN(C)Cc1ccccc1
-4 | 8[16.7 µM] | C[C@@H]1CN([C@@H](C)CO)C(=O)c2cc(NC(=O)Nc3ccccc3)ccc2O[C@@H](C)CCCCO[C@H]1CN(C)Cc1ccccc1
-20 | 9[16.7 µM] | N#C[C@H]1[C@H](c2ccc(C#Cc3ccc(F)cc3)cc2)[C@H](CO)N1c1nc(-c2ccccc2)cs1
-2 | -17[16.7 µM] | Cc1noc(C)c1S(=O)(=O)Nc1ccc2c(c1)C(=O)N([C@@H](C)CO)C[C@H](C)[C@H](CN(C)C(=O)NC1CCCCC1)OCCCC[C@H](C)O2
14 | 0[16.7 µM] | C[C@@H]1CCCCO[C@@H](CN(C)Cc2ccc(C(=O)O)cc2)[C@H](C)CN([C@H](C)CO)C(=O)c2cc(NC(=O)Cc3ccccc3)ccc2O1
4 | 6[16.7 µM] | COc1ccc(S(=O)(=O)Nc2ccc3c(c2)CC(=O)N([C@H](C)CO)C[C@H](C)[C@H](CN(C)Cc2ccc(C(F)(F)F)cc2)O3)cc1
-4 | -9[16.7 µM] | Cc1noc(C)c1NC(=O)N(C)C[C@H]1OCCCC[C@@H](C)Oc2ccc(NC(=O)Nc3cccc4ccccc34)cc2C(=O)N([C@H](C)CO)C[C@@H]1C
-13 | -12[16.7 µM] | CCC(=O)Nc1ccc2c(c1)C(=O)N(C)[C@@H]1CC[C@H](CC(=O)NC3Cc4ccccc4C3)O[C@@H]1CO2
-5 | -11[16.7 µM] | COc1ccc(S(=O)(=O)Nc2ccc3c(c2)C(=O)N([C@H](C)CO)C[C@H](C)[C@H](CN(C)S(=O)(=O)c2ccc(C)cc2)OCCCC[C@H](C)O3)cc1
11 | 8[16.7 µM] | CNC[C@@H]1Oc2ccc(NC(=O)Nc3cccc4ccccc34)cc2CC(=O)N([C@H](C)CO)C[C@@H]1C
-13 | -7[16.7 µM] | O=C(C[C@H]1C[C@@H]2c3cc(NC(=O)Nc4ccccc4)ccc3O[C@@H]2[C@H](CO)O1)NCc1cccnc1
3 | -6[16.7 µM] | C[C@H]1CN([C@@H](C)CO)S(=O)(=O)c2ccc(C#CC3CC3)cc2O[C@H]1CN(C)C(=O)C1CC1
0 | 2[16.7 µM] | Cc1ccc(S(=O)(=O)Nc2ccc3c(c2)C(=O)N([C@H](C)CO)C[C@@H](C)[C@@H](CN(C)S(C)(=O)=O)O3)cc1
-9 | -10[16.7 µM] | CC(C)NC(=O)N[C@H]1C=C[C@@H](CC(=O)NCCN2CCCC2)O[C@H]1CO
56 | -5[16.7 µM] | CC(=O)N(C)C[C@@H]1Oc2cc(C#CCC(C)C)ccc2S(=O)(=O)N([C@H](C)CO)C[C@@H]1C
8 | -148[16.7 µM] | C[C@H]1CCCCO[C@@H](CN(C)C(=O)NC2CCCCC2)[C@@H](C)CN([C@@H](C)CO)C(=O)c2cc(NS(=O)(=O)c3ccc(Cl)cc3)ccc2O1
7 | -5[16.7 µM] | C[C@@H]1CN([C@H](C)CO)C(=O)c2cc(C3=CCCCC3)cnc2O[C@H]1CN(C)Cc1ccc(C(=O)O)cc1
38 | 20[16.7 µM] | C[C@@H]1CN([C@H](C)CO)S(=O)(=O)c2ccc(C#Cc3ccncc3)cc2O[C@H]1CN(C)S(=O)(=O)c1ccccc1
-11 | 3[16.7 µM] | CN1C[C@H](O)COC[C@H]2O[C@H](CC(=O)N3CCN(c4ccccc4)CC3)CC[C@@H]21
20 | -3[16.7 µM] | CNC[C@H]1Oc2ncc(C#CC3(O)CCCC3)cc2C(=O)N([C@H](C)CO)C[C@@H]1C
-4 | -5[16.7 µM] | C[C@@H]1CN([C@H](C)CO)S(=O)(=O)c2ccc(-c3ccncc3)cc2O[C@@H]1CN(C)C(=O)c1cccc(F)c1
-11 | 6[16.7 µM] | COc1ccc(C(=O)Nc2ccc3c(c2)OC[C@@H](C)NC[C@H](C)[C@@H](OC)CN(C)C3=O)cc1
-4 | 14[16.7 µM] | C[C@H](CO)N1C[C@H](C)[C@H](CN(C)S(C)(=O)=O)OCCCC[C@H](C)Oc2ccc(N(C)C)cc2C1=O
20 | 8[16.7 µM] | C[C@@H]1CN([C@@H](C)CO)C(=O)c2cc(C3=CCCC3)cnc2O[C@@H]1CN(C)C
3 | -10[16.7 µM] | C[C@H]1CN([C@@H](C)CO)S(=O)(=O)c2ccc(-c3cccc(C#N)c3)cc2O[C@H]1CN(C)C(=O)c1ccncc1
-6 | 6[16.7 µM] | Cc1noc(C)c1NC(=O)N(C)C[C@@H]1Oc2c(NS(=O)(=O)c3ccc(F)cc3)cccc2C(=O)N([C@@H](C)CO)C[C@H]1C
6 | 19[16.7 µM] | Cc1ccc(S(=O)(=O)NCC[C@@H]2CC[C@@H](NS(=O)(=O)c3ccccc3Cl)[C@@H](CO)O2)cc1
-4 | 0[16.7 µM] | COc1cccc(NC(=O)N[C@H]2CC[C@@H](CC(=O)NCc3ccncn3)O[C@@H]2CO)c1
8 | 30[16.7 µM] | Cc1ccc(S(=O)(=O)Nc2ccc3c(c2)C(=O)N([C@@H](C)CO)C[C@@H](C)[C@@H](CN(C)C(=O)C2CCCCC2)OCCCC[C@@H](C)O3)cc1
-2 | 3[16.7 µM] | COc1cccc(-c2cnc3c(c2)C(=O)N([C@@H](C)CO)C[C@H](C)[C@@H](CN(C)C(=O)CC2CC2)O3)c1
-3 | -5[16.7 µM] | CNC[C@@H]1OCCCC[C@H](C)Oc2ccc(NS(=O)(=O)c3c(C)noc3C)cc2C(=O)N([C@H](C)CO)C[C@@H]1C
-23 | 10[16.7 µM] | O=C(C[C@@H]1C[C@H]2c3cc(NC(=O)C4CCC4)ccc3O[C@H]2[C@H](CO)O1)NCc1cccnc1
-3 | 15[16.7 µM] | COc1cccc(-c2ccc([C@H]3[C@@H](C#N)N(C(=O)Cc4ccccc4)[C@@H]3CO)cc2)c1
15 | -4[16.7 µM] | COCC(=O)N(C)C[C@@H]1Oc2ncc(/C=C/c3ccccc3)cc2C(=O)N([C@H](C)CO)C[C@H]1C

Rewritten in CSV form: three of the compounds above
molecule,Yeast UUG start,Env fusion inh
C[C@@H]1CN([C@@H](C)CO)C(=O)c2cc(C3=CCCC3)cnc2O[C@@H]1CN(C)C,20,8[16.7 µM]
C[C@H]1CN([C@@H](C)CO)S(=O)(=O)c2ccc(-c3cccc(C#N)c3)cc2O[C@H]1CN(C)C(=O)c1ccncc1,3,-10[16.7 µM]
Cc1noc(C)c1NC(=O)N(C)C[C@@H]1Oc2c(NS(=O)(=O)c3ccc(F)cc3)cccc2C(=O)N([C@@H](C)CO)C[C@H]1C,-6,6[16.7 µM]
